# Compound activity: PubChem, several laboratories
# Bead autofluor: counter-screen for toxin protease inhibitors: compound fluorescence. fluorescence intensity (concentration not given with the values). hit rate 3.1% among 360,000. compound autofluorescence counterscreen, microsphere flow cytometry; active compounds read high. AID 624483;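 active means at least 3 SD above the mean of all compounds, about 16000 in these data; inconclusive means too few beads counted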;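 further: 100 nL of 1 mM stock went into each well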
# BJeLR lethal: MLPCN primary cell-based screen for lethality selective to Ras in HRASV12 cells; BJeLR (HRASV12) viability, CellTiter-Glo ATP luminescence, 48 h; reference of the scale not given here; hit rate 0.17% among 300,000; inhibition, % (no concentration beside the values); AID 1554, 2009;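 active means replicate mean above 50%; inconclusive means above 50% but judged a plate artefact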;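 further: 50 nL library stock added to about 25 µL; numbers are from one replicate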
# RN4220 kill: growth inhibition of S. aureus RN4220, primary screen, OD600. hit rate 0.33% among 330,000. inhibition, % (concentration not given with the values). AID 1259311, 2017. 16 h;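 active means z-score of -3 or lower and OD600 up to 0.18 on both plates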;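 further: plate controls were untreated cells for no effect and reference antibiotic for full effect; stock transfer was 100 nL into about 80 µL; one replicate is shown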
# PrP 5UTR inh: inhibition of PrP 5' UTR reporter expression. hit rate 0.35% among 340,000. cell-based PrP 5' UTR mRNA reporter, plate reader. inhibition, % (concentration not given with the values). AID 488862, 2010;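 active means every replicate at 50% or more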;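 further: 0 = median of the neutral control wells; tested in H4 reporter cells; numbers are from one replicate; inactives centre near -14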
# Mtb hypoxia inh: PubChem AID 1159583; M. tuberculosis hypoxia-regulated fluorescent reporter, fluorescence; fluorescence inhibition, % (no concentration beside the values); hit rate 0.1% among 300,000;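 active means 35 to 45% if threefold the growth effect, above 45% if 1.5-fold the growth effect; inactive means the rest, general growth blockers included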;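 further: wells of about 50 µL received 100 nL stock; 0% = vehicle wells and 100% = reference inhibitor wells; whole bacteria with a GFP reporter of the hypoxia response; strong numbers were not always called active; many hits fall short of the cut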
# ugtP null kill: growth inhibition of ugtP-null S. aureus, primary screen, RN4220 ugtP deletion, OD600 | 16 h; some inactives read as strong as hits | growth inhibition, % (no concentration beside the values) | hit rate 0.54% among 330,000 | AID 1259309, 2017;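 active means z-score under -3 and OD600 up to 0.15 on both plates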;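 further: plate controls were untreated wells for no effect and antibiotic for full effect; wells of about 80 µL received 100 nL stock; the first replicate is given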
# Mtb hypoxia inh growth: recorded beside Mtb hypoxia inh, whose call it bears; growth inhibition, %; measured here: M. tuberculosis growth (absorbance);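 0% = vehicle and 100% = reference antibiotic; read after six days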
# Numbers without * were called inactive; ? = inconclusive; nt = not tested or not shown.
SMILES,Bead autofluor,BJeLR lethal,RN4220 kill,PrP 5UTR inh,Mtb hypoxia inh,Mtb hypoxia inh growth,ugtP null kill
CN(Cc1ccccc1F)C(=O)CN1C(=O)NC2(CCc3ccccc32)C1=O (stereo unspecified),?,nt,2.5,-48,10,9,-1
O=C(NC(Cc1ccccc1)C(=O)O)C(=Cc1ccc(F)cc1)NC(=O)c1ccccc1 (stereo unspecified),nt,nt,11,nt,8,1,-1
CCOC(=O)c1cc(C#N)c(Nc2ccc(C)cc2)nc1C(F)(F)F,?,9,3.6,-17,18,5,4
Cc1nc(CSc2nnc3scc(-c4ccccc4)n23)cs1,4631,-2,-0.4,1,1,-1,0
CCOC(=O)C1C(=O)CC(C)(O)C(C(=O)OCC)C1c1ccc(SC)cc1 (stereo unspecified),2058,-4,4.4,-5,11,-1,11
COCCCNC(=S)NC1CC2CCCC(C1)N2Cc1cccs1 (stereo unspecified),8510,11,2.2,-13,0,4,-4
COc1ccc(C2NC(=O)C(C#N)=C(S)N2c2ccccc2)cc1OC (stereo unspecified),4693,-7,0.8,-25,0,8,-3
CN(C)CCCNC(=O)c1ccc(Cl)c(S(=O)(=O)N2CCCCCC2)c1,3594,nt,-0.5,-34,2,0,1
c1cc(-c2nnn(CCOCCn3nnc(-c4ccncc4)n3)n2)ccn1,3404,-9,3.2,-13,8,4,7
COc1ccc(C)cc1NC(=O)c1ccc2c(O)c(S(=O)(=O)c3ccccc3)c(=O)[nH]c2c1,4541,8,3.3,5,5,14,4
O=C(CCCN1C(=O)/C(=C\c2ccccc2)SC1=S)Nc1cccc(C(=O)O)c1,5423,-1,nt,-4,nt,nt,nt
Cc1[nH]n(-c2ccccc2)c(=O)c1/C=N/NC(=O)c1cccc(F)c1,3198,23,nt,9,nt,nt,nt
COc1ccc(C2SCC(=O)N2c2c(C)n(C)n(-c3ccccc3)c2=O)cc1OC (stereo unspecified),4500,7,0.2,16,-1,-2,-1
COc1ccc(CCN2CC(C(=O)NCCc3ccccc3C(F)(F)F)CCC2=O)cc1 (stereo unspecified),5785,-1,0.9,-39,2,-1,0
CN(C)C(=S)SSC(=S)N(C)C,4460,9,31,-5,nt,nt,53
COc1ccc(CC(=O)NNc2ncnc3c2cnn3-c2ccccc2)cc1,1980,3,2.3,4,7,3,0
S=c1[nH]nc2n1CCCN2,3692,4,3.1,-21,1,-4,7
CCCCN(CCCC)CCNC(=O)c1cn(CC)c2ccc(S(=O)(=O)N3CCc4ccccc4C3)cc2c1=O,4968,14,4.2,6,-5,-8,1
Cn1c(=O)c2c(nc(N3CCOCC3)n2CC(=O)C23CC4CC(CC(C4)C2)C3)n(C)c1=O,8265,-1,2.4,-12,0,16,-2
Cc1cc(=O)oc(C)c1C(=O)NCCc1ccccc1,2400,4,-4.3,-1,4,-2,-4
CCc1ccccc1NC(=O)[C@@H]1CCC(=O)N1C1OC(=O)c2c1ccc(OC)c2OC (stereo partly specified),6140,8,1.0,-6,nt,nt,5
CCN(CC)C(=O)CC(c1ccc2c(c1)OCO2)c1c(O)cc(OC)cc1OC (stereo unspecified),3929,0,2.9,-6,18,16,0
COC(=O)COc1ccc(-c2ccc(F)cc2)cc1C=O,4432,-2,-2.7,-24,3,5,4
COc1cccc(C(=O)Nc2ccc(N3CCN(Cc4ccccc4)CC3)cc2)c1,4195,7,1.2,-7,nt,nt,1
CC(C)(C)NC(=O)C(c1ccc(Cl)cc1)N(Cc1ccco1)C(=O)CCl (stereo unspecified),3906,10,nt,-13,nt,nt,nt

# Other records:
SMILES,Bead autofluor,BJeLR lethal,RN4220 kill,PrP 5UTR inh,Mtb hypoxia inh,Mtb hypoxia inh growth,ugtP null kill
Cc1ccc2c(c1)c(-c1ccccc1)nc1nnnn12,3996,-11,6.2,-23,-2,3,-2
COc1c(Cl)cc(Cl)cc1CNc1ccc(S(N)(=O)=O)cc1,4515,6,-1.8,-10,13,-3,13
COCCCn1cnnc1SC(C)C(=O)Nc1ccc(S(=O)(=O)N2CCOCC2)cc1 (stereo unspecified),3785,nt,1.2,5,-10,-3,-1
COc1ccc(CCn2c(N)c(C(=O)NCc3ccco3)c3nc4ccccc4nc32)cc1OC,6901,-7,2.6,-7,0,7,-19
O=C1C(=O)N(CCCO)C(c2ccc(Br)cc2)/C1=C(\O)c1ccc(Br)cc1 (stereo unspecified),3557,4,6.5,-37,3,0,4
CCC(=O)N(c1ccc(F)cc1)C1C=CS(=O)(=O)C1 (stereo unspecified),5142,9,7.8,-7,9,8,7
O=C(NCC(=O)N1CCN(c2ncccn2)CC1)c1ccc(F)cc1,?,nt,-8.2,-14,-4,2,-4
COc1ccc(C(=O)O)cc1S(=O)(=O)NCc1ccccn1,3850,-3,-0.2,-7,12,-3,19
COCC(=O)Nc1nc2n(n1)C(c1ccc(OC)cc1)CC(c1ccc(OC)cc1)N2 (stereo unspecified),21259*,3,6.2,-13,11,7,2
Cc1ccc([N+](=O)[O-])cc1N1C(=O)CS/C1=N\NC(=O)c1cccnc1,4583,1,nt,-18,nt,nt,nt
COc1ccc(-n2c(C)nc3c(cnn3-c3ccc(C)cc3)c2=O)cc1,1950,1,2.9,-7,14,13,5
CC(=O)Nc1ccc(-c2csc(NCCc3ccccc3)n2)cc1,3938,-1,3.7,-60,5,5,-5
CN1C(=O)N(C)C2(c3ccccc3)N(C)C(=O)NC12c1ccccc1 (stereo unspecified),?,-9,4.1,7,10,-1,-2
CC1CN(CCCCSc2ccccc2)CC(C)O1 (stereo unspecified),3359,3,4.3,-13,8,2,7
O=C(Nc1cccc(C(=O)O)c1)/C(=C\c1ccccc1)NC(=O)c1ccccc1Cl,5393,1,2.3,-1,10,15,2
COc1ccc(-n2c(=S)[nH]c3cc(C(=O)NCCCN4CCCC4=O)ccc3c2=O)c(OC)c1,10866,0,-3.6,-20,-5,3,-9
Cc1nn(CC(=O)NNC(=O)c2ccc(Br)cc2)c(C)c1[N+](=O)[O-],3471,nt,3.5,-13,6,7,8
CCOC(=O)C1CCCN(C(=O)c2cc3ccccc3cc2OC)C1 (stereo unspecified),5807,nt,0.3,-7,-5,3,2
Cc1cc(N(CCO)CCO)ccc1C(c1ccc(N(CCO)CCO)cc1C)c1ccccc1Cl,11542,-6,21,-14,3,-2,-6
O=C(COc1ccc(Br)cc1)Nc1ccc([N+](=O)[O-])cn1,2554,-17,6.2,-30,11,10,-30
COc1ccc(OC(=O)Nc2ccc([N+](=O)[O-])cc2OC)cc1,4767,1,3.5,-14,-2,1,5
COC(=O)c1ccc(NC(=S)NC2CC2)cc1,3256,-2,6.2,-12,7,10,-2
COC(=O)c1sc(N)c(C(=O)OC)c1COC(=O)CNS(=O)(=O)c1cccc(C#N)c1,2635,-12,4.4,-17,4,4,-8
CCOC(=O)CSc1nc2c(c(=O)n(C)c(=O)n2C)n1Cc1ccccc1F,5461,4,1.1,-9,nt,nt,1
CCC(=O)c1ccc(OCC(=O)OCC(=O)c2cc(C)n(CC3CCCO3)c2C)cc1 (stereo unspecified),4123,-4,6.1,-18,9,3,8

# Not a retest: an excerpt of the list.
SMILES,Bead autofluor,BJeLR lethal,RN4220 kill,PrP 5UTR inh,Mtb hypoxia inh,Mtb hypoxia inh growth,ugtP null kill
COC(=O)c1sc(N)c(C(=O)OC)c1COC(=O)CNS(=O)(=O)c1cccc(C#N)c1,2635,-12,4.4,-17,4,4,-8
CCOC(=O)CSc1nc2c(c(=O)n(C)c(=O)n2C)n1Cc1ccccc1F,5461,4,1.1,-9,nt,nt,1
CCC(=O)c1ccc(OCC(=O)OCC(=O)c2cc(C)n(CC3CCCO3)c2C)cc1 (stereo unspecified),4123,-4,6.1,-18,9,3,8

# Just PrP 5UTR inh and ugtP null kill (7 entries from above):
compound,PrP 5UTR inh,ugtP null kill
COC(=O)COc1ccc(-c2ccc(F)cc2)cc1C=O,-24,4
COc1cccc(C(=O)Nc2ccc(N3CCN(Cc4ccccc4)CC3)cc2)c1,-7,1
CC(C)(C)NC(=O)C(c1ccc(Cl)cc1)N(Cc1ccco1)C(=O)CCl (stereo unspecified),-13,nt
Cc1ccc2c(c1)c(-c1ccccc1)nc1nnnn12,-23,-2
COc1c(Cl)cc(Cl)cc1CNc1ccc(S(N)(=O)=O)cc1,-10,13
COCCCn1cnnc1SC(C)C(=O)Nc1ccc(S(=O)(=O)N2CCOCC2)cc1 (stereo unspecified),5,-1
COc1ccc(CCn2c(N)c(C(=O)NCc3ccco3)c3nc4ccccc4nc32)cc1OC,-7,-19

# (cont.)
SMILES,Bead autofluor,BJeLR lethal,RN4220 kill,PrP 5UTR inh,Mtb hypoxia inh,Mtb hypoxia inh growth,ugtP null kill
COCCNC(=O)C(c1ccco1)N(Cc1ccc(OC)cc1)C(=O)Cn1nnc2ccccc21 (stereo unspecified),3406,2,9.2,0,4,8,10
O=[N+]([O-])c1ccc(C(O)C23CN4CN(CN(C4)C2)C3)cc1 (stereo unspecified),3321,4,2.5,1,3,3,12
C#CCOCCOCCOCCNc1nc(N2CCN(C(=O)CCCCCCCCCCNC(=O)[C@H](CCCCN)n3cc(C[C@@H](C)CC)nn3)CC2)nc(N2CCN(C(=O)CCCCCCCCCCNC(=O)[C@H](CCCCN)n3cc(C[C@@H](C)CC)nn3)CC2)n1,4049,15,nt,-4,nt,nt,nt
CCCCc1cc2c(cc1NC(=O)CN1CCCCC1)OCCO2,6436,0,2.3,2,-11,-5,1
Cn1cnnc1SCc1ccccc1Br,3101,-3,-15,-8,8,-4,-7
Cc1cccc(NC(=S)NN=C2CC(C)(C)Oc3ccc(O)cc32)c1,nt,nt,0.5,nt,-11,4,11
O=C(COc1ccccc1)NC(=S)Nc1ccc2c(c1)Cc1ccccc1-2,2039,-1,2.5,3,nt,nt,2
COC(=O)c1c(NC(=O)c2ccco2)sc2c1CCC2,2863,5,-11,-23,15,13,-14
Cc1c(Cl)cccc1NC(=S)NCC1COc2ccccc2O1 (stereo unspecified),4303,6,-8.4,-10,12,0,-9
Cc1ccc(NC(=O)C2C(=O)N(C)c3ccccc32)cc1 (stereo unspecified),2547,7,2.8,-7,8,10,5
Cc1cccnc1NC(=O)c1cccc(S(=O)(=O)NCc2ccccc2)c1,?,0,2.0,-17,7,1,3
Cn1c2ccccc2c(=O)c2cc(C#Cc3ccccn3)ccc21,3534,-2,2.9,-36,3,11,10
CC(C)(C)OC(=O)n1cc(C(=O)c2ccccc2O)cn1,5071,8,2.9,-2,6,7,6
FCCCOc1ccc(/C=N/OCc2c(Cl)cccc2Cl)cc1,4593,-7,nt,-24,nt,nt,nt
Cn1c(NC2CCCCC2)c(N=O)c(=O)n(C)c1=O,4555,6,4.6,-9,17,8,4
O=Cc1c(N2CCN(c3ccccc3)CC2)nc2ccccn2c1=O,2594,-5,5.8,-33,22,11,-3
CC(=NNC(=O)c1c([N+](=O)[O-])c(C)nn1C)c1ccc(NC(=O)C2CCCC2)cc1,nt,nt,1.6,nt,1,2,-3
CC(Oc1ccc(F)cc1)c1nnc(SCC(=O)N(c2ccccc2)C2CCS(=O)(=O)C2)o1 (stereo unspecified),5065,nt,6.1,-9,2,-2,15
Cc1ccc(NC(=O)CN2C(=O)N/C(=C/c3cc(C)n(-c4cccc(C(=O)O)c4)c3C)C2=O)cc1,2237,nt,6.7,-10,-4,4,3
Cc1ccc(N2CCN(C(=O)CCc3nc4ccccc4[nH]3)CC2)c(C)c1,4359,-4,-4.8,-6,0,4,-2

# 2 of the compounds above, as tab-separated lines.
Compound	Bead autofluor	BJeLR lethal	RN4220 kill	PrP 5UTR inh	Mtb hypoxia inh	Mtb hypoxia inh growth	ugtP null kill
CC(Oc1ccc(F)cc1)c1nnc(SCC(=O)N(c2ccccc2)C2CCS(=O)(=O)C2)o1 (stereo unspecified)	5065	nt	6.1	-9	2	-2	15
Cc1ccc(NC(=O)CN2C(=O)N/C(=C/c3cc(C)n(-c4cccc(C(=O)O)c4)c3C)C2=O)cc1	2237	nt	6.7	-10	-4	4	3
